CDC25B-CDK2 inh: human CDC25B-CDK2/CyclinA binding inhibition; actives 0.72% (n = 94,000); HTRF CDC25B-CDK2/CyclinA binding, anti-His/anti-Flag; stronger effect = higher value; P30305+P24941; AID 1259370; z-score (no concentration beside the values);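 also: score is relative to mean and SD of negative controls; strong numbers were not always called active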
HIV TAR-Tat: HIV-1 TAR-Tat binding disruption | HIV-1 TAR RNA, Tat peptide displacement FRET; stronger effect = higher value | z-score (test concentration not listed) | actives 0.6% (n = 100,000) | AID 1259389;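 also: score is relative to mean and SD of negative controls; some compounds called inactive have numbers as strong as hits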
* marks the source's active call; other numbers are inactive results; · = not tested or not shown.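 The calls were made as follows: active = z-score from 3 up in half or more of its runs; inactive = the rest.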

SMILES | CDC25B-CDK2 inh | HIV TAR-Tat
Cn1c(SCC(=O)N2CCCc3ccccc32)nc2c(c1=O)SCC2 | -0.33 | -0.18
COC(=O)c1cc(S(=O)(=O)N2CCCC(CN3CCc4ccccc4C3)C2)c[nH]1 (configuration not stated) | · | -0.08
CCOC(=O)c1sc(=S)n(-c2ccccc2)c1C | -2.2 | 2.2
CN(C)CCCOC(=O)c1cc2ccccc2o1 | -2.6 | -0.12
CCSc1nnc(-c2nonc2NC(C)=O)n1C | -1.9 | 1.3
Cc1cc(C)cc(-n2ccnc(SCC(=O)Nc3c(C)cc(C)cc3C)c2=O)c1 | · | -0.27
COc1cccc(-c2nc(-c3cc4ccc(C)cc4[nH]c3=O)no2)c1 | -2.8 | -0.4
Cc1ccc2onc(CNC(=O)NC(C)c3ccccc3)c2c1 (configuration not stated) | · | 1.4
CN1C(=O)c2cc(C(=O)NCCCN3CCCC3)nn2CC1(C)C(=O)NC1CCCC1 (configuration not stated) | · | -0.65
CCc1c(C)c2c(C)nn(-c3ccc(Br)cc3)c2oc1=O | -1.2 | -0.97
N#Cc1nc(/C=C/c2ccc(F)cc2)oc1NCCCN1CCOCC1 | -0.74 | 0.36
CCOC(=O)c1c(NC(=O)c2ccco2)sc2c1CCCCC2 | 0.7 | 0.69
COC(=O)C(C)c1nc2sc3c(c2c(=O)n1-c1ccccc1)CC(C(C)C)OC3 (configuration not stated) | -2.1 | ·
Cc1occc1-c1nnc2sc(/C=C/c3ccccc3Cl)nn12 | 1.2 | 7.7*
Cc1ccccc1-c1nc(-c2ccccn2)no1 | -0.23 | 0.22
COc1ccc(NS(=O)(=O)c2csc(C(N)=O)c2)cc1OC | · | 1.8
Cc1cc(-c2ccc(C)c(S(=O)(=O)Nc3ccc(N4CCC(C)CC4)cc3)c2)on1 | · | 0.31
O=c1c(S(=O)(=O)c2ccc(F)c(F)c2)c[nH]c2cc(F)ccc12 | -1.7 | 2.2
O=C(Cn1c(=O)oc2cc(S(=O)(=O)N3CCCC3)ccc21)Nc1ccccc1F | -0.63 | -0.11
O=C(NCc1ccc2c(c1)OCO2)C1CCCN(S(=O)(=O)c2cnc[nH]2)C1 (configuration not stated) | -0.54 | ·

Exported in markdown: entries from further up.
| mol | CDC25B-CDK2 inh | HIV TAR-Tat |
| --- | --- | --- |
| COC(=O)c1cc(S(=O)(=O)N2CCCC(CN3CCc4ccccc4C3)C2)c[nH]1 (configuration not stated) | · | -0.08 |
| CCOC(=O)c1sc(=S)n(-c2ccccc2)c1C | -2.2 | 2.2 |
| CN(C)CCCOC(=O)c1cc2ccccc2o1 | -2.6 | -0.12 |
| CCSc1nnc(-c2nonc2NC(C)=O)n1C | -1.9 | 1.3 |
| Cc1cc(C)cc(-n2ccnc(SCC(=O)Nc3c(C)cc(C)cc3C)c2=O)c1 | · | -0.27 |
| COc1cccc(-c2nc(-c3cc4ccc(C)cc4[nH]c3=O)no2)c1 | -2.8 | -0.4 |

Remaining list, next part.
SMILES | CDC25B-CDK2 inh | HIV TAR-Tat
Cc1ccc2nc(NC3=NCN(CCCN4CCOCC4)CN3)nc(C)c2c1 | -0.04 | 1.6
COc1ccc(OC)c(NC(=O)NC2(C(F)(F)F)Oc3ccccc3O2)c1 | 0.55 | ·
Cn1c(=O)c2c(nc(Cl)n2Cc2ccccc2)n(C)c1=O | -1.8 | 0.66
CCOc1ccc(N2C(=O)CC(N3CCN(C)CC3)C2=O)cc1 (configuration not stated) | -0.42 | 0.52
Cc1nc2c(C)cccn2c(=O)c1Cc1nnc(SCC(=O)Nc2ccc(C(C)C)cc2)n1C | -0.42 | -0.62
CC(=O)N1CCOc2ccc(S(=O)(=O)N3CCC(C(=O)NC4CCC(C)CC4)CC3)cc21 (configuration not stated) | · | 3.6
Clc1ccccc1-c1nc(-c2ccc3nonc3c2)no1 | -1.9 | ·
CN(C)c1ccc(CNCCC2(O)CCOC(C)(C)C2)cc1 (configuration not stated) | -0.73 | -0.56
CC1=C(c2cccc(Cl)c2)S(=O)(=O)NC1=NCCc1ccccc1 | -3.5 | 2.3
CC1CCCN(C(=O)c2cc3c(s2)-c2ccccc2S(=O)(=O)C3)C1 (configuration not stated) | -2.3 | 0.85
CC(C)(C)c1ccc(Oc2coc3cc(OCC(=O)O)ccc3c2=O)cc1 | -1 | 1.9
CCCC(=O)Oc1ccc2oc(-c3ccc(OC)cc3)cc(=O)c2c1 | -0.04 | 2.8
c1cncc(CNc2nc3ccccc3c3nc(-c4cccnc4)nn23)c1 | -0.6 | -2.2
CC(=O)c1cnc2c(-c3ccccc3)c(-c3ccccc3)nn2c1C | -1.4 | ·
Cc1cc2n(n1)CCCN2C(=O)CCC(=O)NCCC1=CCCCC1 | · | 1.9
O=C1CSC(c2cccc(F)c2)N1c1ccc2ccccc2c1 (configuration not stated) | · | -0.28
O=C(NCC1CCCO1)C(=O)NCC(c1ccco1)S(=O)(=O)c1ccc(F)cc1 (configuration not stated) | · | 2.2
Cc1nnsc1C(=O)Oc1ccc(-c2n[nH]nc2C#N)cc1 | -2.3 | ·
O=C(Cn1c(=O)n(Cc2ccccc2)c(=O)c2sc3ccccc3c21)NC1CCCC1 | -0.58 | 1.7
Cc1ccc(N2CC(c3nnc(Cc4ccc(Cl)cc4)o3)CC2=O)cc1 (configuration not stated) | -1.8 | 3

An excerpt of these results, with each value named.
> CC(C)(C)c1ccc(Oc2coc3cc(OCC(=O)O)ccc3c2=O)cc1
  CDC25B-CDK2 inh: -1 | HIV TAR-Tat: 1.9
> CCCC(=O)Oc1ccc2oc(-c3ccc(OC)cc3)cc(=O)c2c1
  CDC25B-CDK2 inh: -0.04 | HIV TAR-Tat: 2.8
> c1cncc(CNc2nc3ccccc3c3nc(-c4cccnc4)nn23)c1
  CDC25B-CDK2 inh: -0.6 | HIV TAR-Tat: -2.2

Going on with the list.
SMILES | CDC25B-CDK2 inh | HIV TAR-Tat
CCc1nnc(NC(=O)CSc2ccc3nnc(-c4cccs4)n3n2)s1 | · | 2.6
Cc1nnc2c3ccccc3nc(N3CCN(c4ccccc4)CC3)n12 | -1.7 | 0.14
COc1ccc(Nc2ncccc2N)cc1 | 13* | -1.7
N[C@@H](Cc1ccccc1)c1nnc(SCc2ccccc2F)o1 | 1.2 | -1.5
CCN(CC)CCn1c(-c2ccc(Cl)cc2)cn2c3ccccc3nc12 | -0.22 | ·
Cc1ccc(S(=O)(=O)[C@H]2CS(=O)(=O)C[C@@H]2NCC2CCCO2)cc1 (some centres not stated) | -0.68 | -1.5
COc1ccc(Cl)cc1NS(=O)(=O)c1ccc2c(c1)C(C)(C)C(=O)N2C | · | 2
CC(CCc1ccco1)NC(=O)c1cnc(N2CCCC2)nc1 (configuration not stated) | 0.84 | -0.18
CCSc1nnc2c(n1)OC(c1ccccc1F)N(C(C)=O)c1ccccc1-2 (configuration not stated) | -0.25 | -0.71
CC1CCCCN1c1nn2nnnc2c2ccccc12 (configuration not stated) | · | 0.18
Cc1oc(C(C)(C)C)cc1C(=O)Nc1ccc(N2CCOCC2)c(Cl)c1 | -2.1 | ·
Cc1ccc2[nH]c(=O)c(CN(C(C)C)S(=O)(=O)c3ccccc3)cc2c1 | -2.8 | 19*
CC(=O)N1c2ccc(S(=O)(=O)N3CCCC3)cc2CC1C(=O)NCCc1c[nH]c2ccccc12 (configuration not stated) | · | 1.3
O=C(NCc1ccco1)C(=O)NCC(c1cccs1)S(=O)(=O)c1ccc(F)cc1 (configuration not stated) | · | 1
COc1ccc(NS(=O)(=O)c2cc3c4c(c2)C(C)C(=O)N4CCC3)cc1OC (configuration not stated) | · | -0.22
CC(C)(C)C1CCC2(CC1)SCC(=O)N2c1ccc(Br)cc1 (configuration not stated) | -0.53 | ·
COc1ccc(NC(=O)CCS(=O)(=O)c2ccc3c(c2)NC(=O)CS3)c(OC)c1 | · | -0.28
COc1ccc(OC)c(S(=O)(=O)n2nc(C)c(S(=O)(=O)N(C)c3ccccc3)c2C)c1 | · | 1.4
O=C(Nc1ccc(F)cc1)C1Nc2ccccc2S(=O)(=O)N1 (configuration not stated) | · | 1.9
O=C(CN1C(=O)C(=O)c2ccccc21)c1ccc(Br)cc1 | · | 3.1
O=C1c2cccnc2C(=O)N1Cc1ccc(S(=O)(=O)Nc2ccc(Cl)cc2)s1 | · | 1.3
CC1CCCCN1C(=O)Cn1cc(C(=O)c2cccs2)c2ccccc21 (configuration not stated) | -2.8 | 0.21
CC1CC(=O)c2cc(Cl)ccc2S1(=O)=O (configuration not stated) | 2 | ·
COc1ccc(C(=O)Nc2cnc3ccccn3c2=O)cc1OC | -0.87 | 2.3
CCN1CCN(C(=O)C(=O)Nc2ccc3nc4n(c(=O)c3c2)CCCCC4)CC1 | -3.4 | ·
CC1CCCC(Nc2c(-c3ccc(Cl)cc3)nc3c(C#N)c[nH]n23)C1C (configuration not stated) | 0.2 | 0.22
COc1ccc(OC)c(NC(=O)N2CC(C)Oc3ccc(Cl)cc32)c1 (configuration not stated) | · | 1.6
Cc1cc2oc(C(=O)N(Cc3ccccc3)C3CCS(=O)(=O)C3)cc(=O)c2cc1C (configuration not stated) | -0.65 | -0.07
O=C(Oc1ccc(-c2cnc3ccccc3n2)cc1)c1ccc(F)cc1 | -0.64 | 0.54
CCNc1nc(N2CCOCC2)nc2c1cnn2C | · | 0.9
O=C(CSc1nc2ncccc2o1)N1CCCC1 | · | 0.88
CCC1CCCCN1Cc1ccc(CNC(=O)c2noc3c2CCc2sccc2-3)o1 (configuration not stated) | · | 1.1
COc1cc2c(cc1OC)C(c1cccnc1)CC(=O)N2 (configuration not stated) | -1.5 | -0.39
CCC(C(=O)NCc1cccs1)N1C(=O)CCn2nc(C)cc21 (configuration not stated) | · | 0.72
O=C(Nc1ccccc1Oc1ccccc1)c1ccccc1Cl | -0.44 | ·
CCc1nnc(NC(=O)c2cc3c(s2)-c2ccc(Cl)cc2S(=O)(=O)C3)s1 | 0.74 | 1.8
Cn1c(SCC(=O)NN2CC(=O)N(c3cccc(Cl)c3)CC2=O)nnc1-c1ccncc1 | -0.26 | ·
O=C1CCCC2=C1C(c1cccs1)Nc1ccc3ncccc3c12 (configuration not stated) | 0.96 | -0.94
COc1ccc(C2CC(=O)C3=C(C2)Nc2ccccc2NC3c2ccc(OC(C)=O)c(OC)c2)cc1 (configuration not stated) | -0.76 | 1.1
CCCC1=NC(C)(C)Cc2cc(OC)c(OC)cc21 | -1.6 | 0.03
O=C(Nc1nc2ccc(Cl)cc2s1)c1nn(-c2ccccc2)ccc1=O | -1 | -0.45
CCOC(=O)N1CCN(C(=O)CSc2c3c(nc4ccccc24)CCCC3)CC1 | -5.9 | 0.29
Cc1ccc(C(=O)C(C)n2nc(-c3ccc(C)c(S(=O)(=O)N4CCCC4)c3)ccc2=O)cc1C (configuration not stated) | 1.1 | 0.18
Brc1ccccc1-c1nn2c(-c3ccncc3)nnc2s1 | -0.79 | 1.6
CCN1C(C(=O)OC)=C(OC(=O)c2ccccc2)c2ccccc2S1(=O)=O | -0.07 | 0.88
O=C(NC1CCCCC1)[C@H](Cc1ccccc1)N1Cc2ccccc2C1=O | -1.1 | -1.2
O=C(NCCCN1CCCC1=O)c1ccc(-n2ccc3ccccc32)s1 | · | 0.54
O=C(NC1CCS(=O)(=O)C1)c1cc(-c2ccc(Cl)cc2)on1 (configuration not stated) | -1.8 | 0.37
O=C(N1CCOCC1)N1CCc2ccccc21 | -0.21 | 0.6
CCc1cc(C(=O)N=Nc2c(O)[nH]c3ccc(Br)cc23)c2ccccc2n1 | -0.58 | ·
C=C(C)Cn1c(N(CCO)Cc2ccccc2)nc2c1c(=O)[nH]c(=O)n2C | -0.36 | ·
O=C1CC(c2cccc(Cl)c2)c2cc3c(cc2N1)OCO3 (configuration not stated) | -1.1 | 0.85
CC1CCCCN1C(=O)Cn1ncc2c1-c1ccccc1OC2 (configuration not stated) | -1.2 | 0.57
CCc1ccccc1Nc1nc2ccccc2c2nncn12 | -1.1 | 0.26
Cn1c(SCC(=O)Nc2sc3c(c2C#N)CCCC3)nnc1-c1cc2ccccc2o1 | · | -0.02
COc1ccc(OC)c(NC(=O)CSc2nn3c(=O)c(C)nnc3s2)c1 | · | -1.5
O=S(=O)(NC1Cc2ccccc2C1)c1ccc(Cl)s1 | 0.16 | ·
CCOC(=O)c1sc(N2C(=O)c3oc4ccc(F)cc4c(=O)c3C2c2ccc(F)cc2)nc1C (configuration not stated) | -1.6 | 0.21
Nc1nc(SCc2nc(-c3ccccc3)no2)[nH]c(=O)c1-c1ccccc1 | -1.6 | -1.1
O=C(Cn1cc(S(=O)(=O)Cc2ccccc2Cl)c2ccccc21)N1CCCC1 | · | -0.29
Next part.
SMILES | CDC25B-CDK2 inh | HIV TAR-Tat
Cc1nn(-c2cc(Cl)ccc2Cl)c(N)c1C(N)=S | 1.3 | ·
Cn1c(Cn2c(=O)sc3ccccc32)nnc1SCC(=O)NC1CCCC1 | -1.5 | ·
Cc1cc2c3c([nH]c2cc1S(=O)(=O)Nc1c(C)cccc1C)CC(C)(C)CC3=O | · | 0.8
O=C(CSCc1cnn(-c2ccccc2)c1-n1cccc1)N1CCOCC1 | 0.38 | 1.1
CC(=O)N1c2c(cc(Br)cc2S(=O)(=O)Nc2ccc(C)cc2Cl)CC1C (configuration not stated) | 0.03 | ·
CCOC(=O)Cc1csc2nc(C)cc(=O)n12 | -0.17 | 0.38

Bioassay records deposited in PubChem by Center for Chemical Genomics, University of Michigan.
